From PubChem
H5N1 CPE – antiviral screen in MDCK cells, H5N1 avian flu | inhibition, % at 50 µM | 0.07% of 96,000 active | cytopathic effect, luminescence, 72 h; hits give high values; no value below 0 was filed and about half of the inactive calls have no number; reference of the scale not given here; in the data active = inhibition above about 25%
* = called active by the depositor; i = inactive.

entry | compound | H5N1 CPE
1 | O=C(NCc1ccc2c(c1)OCO2)C1CC(=O)N(CCc2ccccc2)C1 (stereo not drawn) | 0.3
2 | C=CCn1c(CNc2ccccc2)nnc1SCC(=O)N/N=C/c1ccc(O)cc1O | i
3 | FC(F)Sc1ccc(N=C2NN=C(c3ccc4c(c3)OCCO4)CS2)cc1 | i
4 | COc1ccc(-n2c(Cc3cc(=O)[nH]c(=O)[nH]3)nnc2SCC(=O)N2CCC(C)CC2)cc1 | 1.6
5 | COc1ccc(-n2nc3cc(C)c(NC(=O)c4cccnc4)cc3n2)cc1 | i
6 | CC(=O)c1ccc(NC(=O)C2CCCN2S(=O)(=O)c2ccc(F)cc2)cc1 (stereo not drawn) | 1.0
7 | CCCC(=O)Nc1ccc2c(c1)nc(CN1CCN(C(C)=O)CC1)n2C | 0.4
8 | COc1ccc(N2C(=O)c3ccc(NC(C)=O)cc3C2=O)cc1 | i
9 | Nn1c(CSc2ccccn2)nc2ccccc2c1=O | 0.8
10 | COc1cc(/C=C(/NC(=O)c2ccccc2)C(=O)Nc2cccc(O)c2)c([N+](=O)[O-])cc1OC | i
11 | CC(=O)c1c(N2CCOCC2)nc(=O)n(-c2ccccc2)c1C | 0.4
12 | CSCCC(N=CC1=C(O)CC(C)(C)CC1=O)C(=O)O (stereo not drawn) | 0.1
13 | COc1ccc(CN2CCc3ccccc3C2)c(OC)c1OC | i
14 | O=C(NCC(=O)N(CC1CCCO1)C(C(=O)NC1CCCCC1)c1ccccc1)c1cccs1 (stereo not drawn) | i
15 | Cc1ccnc(NC(=O)c2cc(S(=O)(=O)N3CCCCC3)ccc2Cl)c1 | 1.8
16 | CC(C)(C)Cc1nnc(NS(=O)(=O)Cc2ccccc2)s1 | i
17 | CC(=O)c1ccc(-n2nncc2C(C)(C)C)cc1 | 0.7
18 | CC1(C)CC(=O)c2cnc(NC(=O)Cc3ccc(Cl)cc3)nc2C1 | 0.4
19 | Nc1nc2n(n1)C1(CCCCC1)C1=C(CCCC1)N2 | 0.6
20 | CCn1c(SCC(=O)Nc2nc(-c3ccccc3)cs2)nnc1-c1ccccc1 | i
21 | O=c1oc2cc(OCc3ccc(F)cc3F)ccc2cc1-c1ccccn1 | i
22 | CC(C)(C)N1CC(c2nc3ccccc3n2Cc2ccc(F)cc2)CC1=O (stereo not drawn) | i
23 | Cc1cc(C)n(-c2cc(-n3nc(C)cc3C)ncn2)n1 | 0.9
24 | CCOC(=O)C1CN(S(=O)(=O)c2ccc(OC)cc2)c2cc(S(=O)(=O)CC)ccc2O1 (stereo not drawn) | 0.8
25 | O=C(O)C1Nc2c(C(=O)N3CCOCC3)cccc2C2C=CCC12 (stereo not drawn) | 1.2
26 | CCOC(=O)Nc1ccc(C(=O)Oc2ccccc2)c(O)c1 | 0.6
27 | CC(C)(C)c1ccc(C(=O)Nc2cnccn2)cc1 | 0.5
28 | C1=Nc2c(Nc3ccccc3)ncnc2Oc2ccccc21 | i
29 | COc1ccc(CC(=O)c2cc(OC)c(OC)cc2CC(=O)O)cc1OC | i
30 | COc1ccccc1NC(=O)NC(=O)N(C(C)C)S(C)(=O)=O | 0.5

3 records picked at random from the list so far, as already listed:
entry | compound | H5N1 CPE
28 | C1=Nc2c(Nc3ccccc3)ncnc2Oc2ccccc21 | i
24 | CCOC(=O)C1CN(S(=O)(=O)c2ccc(OC)cc2)c2cc(S(=O)(=O)CC)ccc2O1 (stereo not drawn) | 0.8
18 | CC1(C)CC(=O)c2cnc(NC(=O)Cc3ccc(Cl)cc3)nc2C1 | 0.4

The results go on:
entry | compound | H5N1 CPE
31 | CCOC(=O)N1CCC(NC(=O)C2CCCN(c3nc4ccccc4o3)C2)CC1 (stereo not drawn) | 0.6
32 | C=C(C)CC1N(c2cccc(OC)c2)C(=O)C2C(C(=O)O)C3C=CC21O3 (stereo not drawn) | 1.1
33 | CCCCN1CC(O)=C(c2nc(-c3ccc(Cl)cc3)cs2)C1=N | 3.0
34 | CS(=O)(=O)N(CC(=O)Nc1ccc(C(N)=O)cc1)C1CCCCC1 | 0.2
35 | O=C(C1CC1)N1CCc2cc(Br)cc(S(=O)(=O)N3CCCCCC3)c21 | i
36 | COc1ccc(-n2c(Cn3c(=O)sc4ccccc43)nnc2SCC(=O)N2CCCC2)cc1 | 1.7
37 | O=C1C2CCCN2C(c2ccccc2)N1c1ccccn1 (stereo not drawn) | i
38 | CCCn1c(C)cc(C(=O)COC(=O)c2cc(S(=O)(=O)NCC(C)C)c(Cl)cc2Cl)c1C | 1.1
39 | Cc1cc(C)c(C#N)c(Nc2ccc3c(c2)OCCO3)n1 | i
40 | Cc1cc2c(=O)n(Cc3ccco3)c(SCC(=O)c3ccc(Cl)s3)nc2s1 | i
41 | COc1cc(Br)cc2cc(C(=O)N3CCN(C(=O)c4ccco4)CC3)c(=O)oc12 | i
42 | CC1CCc2cc(F)ccc2N1C(=O)CSc1nnc2c3ccccc3n(C)c2n1 (stereo not drawn) | 3.3
43 | COc1ccc(-n2c(C)cc(C(=O)CSc3nnc(-c4ccoc4C)n3C)c2C)cc1 | 0.1
44 | COc1cc2c(C)nc3onc(-c4ccccc4)c3c2cc1OC | 2.4
45 | CC1CCc2nn(CC(=O)NCc3ccc4c(c3)OCO4)cc2C1 (stereo not drawn) | i
46 | O=C(c1cc(-c2ccccc2)nc2ccccc12)N1CCN(c2ccccn2)CC1 | 0.4
47 | O=C(NCCn1ccc2ccccc21)c1ccc(S(=O)(=O)N2CCOCC2)cc1 | 2.3
48 | CCOc1ccc(N(CC(=O)OC)S(=O)(=O)c2ccc(OC)c(OC)c2)cc1 | 0.1
49 | N#Cc1c(SCC(N)=O)nc(-c2ccccc2)c2c1CCCC2 | 0.1
50 | Cc1cccc(N2CCN(Cc3ccoc3)CC2)c1C | i
51 | O=C(Nc1ccc2c(c1)OCO2)c1cccc(F)c1 | i
52 | O=C1NC(=O)C2(Cc3ccccc3N3CCCC32)C(=O)N1c1ccccc1 (stereo not drawn) | 0.6
53 | Cc1ccc(Oc2ccccc2/C=N/O)cc1 | i
54 | O=C(C1CCC1)N1CCc2cc(S(=O)(=O)NCc3ccccn3)ccc21 | 1.4
55 | Cc1ccc(S(=O)(=O)n2nc(C)cc2C)cc1 | 0.9
56 | CCN1CCN(CCNC(=O)C2CCCN(Cc3nc(-c4cccc(Cl)c4)oc3C)C2)CC1 (stereo not drawn) | 0.9
57 | CCOC(=O)C(NC(C)=O)(N1CCc2ccccc2C1)C(F)(F)F (stereo not drawn) | 0.4
58 | COC(=O)C1=C(C)NC(C)=C(C(=O)OC)C1c1ccccc1OCc1c(C)no[n+]1[O-] | 2.6
59 | Cc1ccnc2nc(C(=O)Nc3nccs3)nn12 | i
60 | N#Cc1c2n(c3c(=S)nc[nH]c13)CCCCC2 | 0.5

Copied from the list:
H5N1 CPE with COc1ccc(-n2c(C)cc(C(=O)CSc3nnc(-c4ccoc4C)n3C)c2C)cc1 = 0.1
H5N1 CPE with CCCCN1CC(O)=C(c2nc(-c3ccc(Cl)cc3)cs2)C1=N = 3.0

Going on with the list:
entry | compound | H5N1 CPE
61 | COc1ccc(S(=O)(=O)Nc2ccc(C(F)(F)F)cc2)cc1OC | 0.4
62 | COc1ccc(S(=O)(=O)Nc2ccccc2SC)cc1C | 0.6
63 | O=C(CSc1nnc(-c2ccccc2)n1C1CCCCC1)Nc1ccc(S(=O)(=O)Nc2ccccn2)cc1 | 1.0
64 | COc1ccc(C2SCCN2S(=O)(=O)c2ccccc2)cc1OC (stereo not drawn) | 1.4
65 | CCn1c(C)c(C(C)=O)c(N2CCN(C(=O)c3ccco3)CC2)nc1=S | 1.2
66 | Cc1ccc(N2C(=O)CSCC2=O)cc1 | i
67 | CCOC(=O)c1ccccc1NC(=O)CSc1nnnn1C1CCCCC1 | i
68 | O=C(Nc1ccccc1)N(Cc1ccccc1)C1=NCCS1 | i
69 | Cc1ccc(S(=O)(=O)C2(C(=O)N3CCN(C4CCCCC4)CC3)CC2)cc1 | i
70 | CCCn1nc2cc(C(=O)NCC34CC5CC(CC(C5)C3)C4)ccc2c1OCC | 8.6
71 | CCC(=O)N1C(C(=O)O)CSC1c1ccc(OC)cc1 (stereo not drawn) | 0.4
72 | COc1cc(C(=O)N2CC(C)OC(C)C2)c([N+](=O)[O-])cc1OC (stereo not drawn) | 1.3
73 | CC(C)n1nc(C(=O)Nc2nnc(SCc3c(Cl)cccc3Cl)s2)c2ccccc2c1=O | 1.0
74 | OCc1nc2ccccc2n1CC(O)COc1ccccc1 (stereo not drawn) | i
75 | COCCNc1nc2c(c(=O)n(C)c(=O)n2C)n1Cc1cccc(C(F)(F)F)c1 | 1.0
76 | O=C(CSc1nnc(CNc2ccc(F)cc2)n1Cc1ccco1)N1CCCC1 | 1.7
77 | CCC(c1nnnn1Cc1ccc2c(c1)OCO2)N1CCN(c2ccc(OC)cc2)CC1 (stereo not drawn) | 0.6
78 | CCCCCc1nnc(N)s1 | i
79 | CN(C)Cc1cc(C(C)(C)c2cc(CN(C)C)c(O)c(CN(C)C)c2)cc(CN(C)C)c1O | i
80 | CC(=O)c1c(COC(=O)c2ccccc2)nc2ccccc2[n+]1[O-] | 5.5
81 | CCN1C(=O)c2cccc3c(S(=O)(=O)NCc4ccco4)ccc1c23 | 1.3
82 | c1coc(-c2nc3c([nH]2)CCc2nonc2-3)c1 | 1.5
83 | CC(C)NC(=O)CN(C)S(=O)(=O)c1ccc(F)cc1 | i
84 | CC(C)c1ccc(-c2nnn(Cc3nc4ccccc4s3)n2)cc1 | 0.6
85 | Cc1nc2ccccc2c2c1C(=O)N(C(C)C)C2=O | 0.6
86 | O=C(Nc1cccnc1)c1ccc(Oc2ccccc2)cc1 | i
87 | COc1ccc(-c2noc(CCC(=O)N3CCC(C)CC3)n2)cc1 | 1.0
88 | O=C(NCc1ccccn1)c1cc(-c2ccccc2)on1 | 0.1
89 | O=C(Nc1nc(-c2ccccn2)cs1)C1COc2ccccc2O1 (stereo not drawn) | 1.7
90 | Clc1ccc2oc(-c3ccccn3)nc2c1 | 0.3
91 | CCc1nc(SC)[nH]c(=O)c1C | i
92 | COc1cc2cc(C(=O)O)[nH]c2c(OC)c1OC | i
93 | COc1cc(C(=O)N(Cc2cccc(Cl)c2)C2CCS(=O)(=O)C2)cc(OC)c1OC (stereo not drawn) | 2.3
94 | COc1ccc(-c2nc(CCNC(=O)c3cccs3)cs2)cc1 | 2.4
95 | COc1ccccc1C1(O)CCN(C(=O)c2cccs2)CC1 | i
96 | CCOC(=O)N1CCC(N2C(=O)c3ccccc3C2Nc2c(C)cccc2C)CC1 (stereo not drawn) | 0.5
97 | Cc1cccc(NC(=S)N(CCN(C)C)C(C)c2ccccn2)c1 (stereo not drawn) | 0.4
98 | CSCc1nnc(NC(=O)c2ccc(S(=O)(=O)N(CC(C)C)CC(C)C)cc2)o1 | 0.2
99 | COc1ccccc1N1CCN(C(=O)CSc2nc(C)cc(=O)[nH]2)CC1 | 0.5
100 | CCn1cc(C(=O)NC2CCCCC2)c(=O)c2cc(S(=O)(=O)N(C)C)ccc21 | i
101 | CCN(CC)c1ccc(/C=N/n2c(=S)[nH]nc(C)c2=O)cc1 | i
102 | O=C(Nc1ccc(Cl)cc1C(=O)c1ccccc1)c1ccccc1 | 0.1
103 | CC1=C(C(=O)OCC2CCCO2)C(c2ccc(C)o2)C2=C(CC(c3ccc(N(C)C)cc3)CC2=O)N1 (stereo not drawn) | i
104 | O=C1CCCc2c1nn(-c1ccccc1)[n+]2[O-] | i
105 | CCCS(=O)(=O)c1c(S(=O)(=O)CCC)c2c(N)cccn2c1C(=O)c1ccccc1 | 0.2
106 | CCOC(=O)c1sc(NC(=O)/C=C/c2cnn(C)c2C)c(C(=O)OC(C)C)c1C | 1.3
107 | CC(=O)NC(C)C(=O)OCc1ccc(Cl)cc1Cl (stereo not drawn) | i
108 | CSCCC(NC(=O)c1ccccc1)c1nc(-c2ccccc2)no1 (stereo not drawn) | 1.2
109 | COc1cc(OC)cc(-c2cc3nc(C4CCN(C(=O)OC(C)(C)C)CC4)cc(=O)n3[nH]2)c1 | i
110 | CN(C)/C=C/c1c(C#N)c(=O)ncn1Cc1ccccc1 | 1.9
111 | CCCCN(C(=O)c1ccco1)c1nnc(-c2cc(OC)c(OC)c(OC)c2)s1 | 1.0
112 | Cc1ccc(NC(=O)CSCC(=O)N2c3ccccc3CCc3ccccc32)cc1 | i
113 | CCCc1cc(C(=O)Cc2ccc(C(=O)OCC)o2)c(O)cc1O | 0.1
114 | CCOC(=O)C1=C(C)OC(N)=C(C#N)C1c1cc(C)sc1C (stereo not drawn) | i
115 | O=C1NCCCC1C(=O)Nc1ccccn1 (stereo not drawn) | i
116 | COc1ccccc1-n1nc(C(=O)NCc2ccco2)c2ccccc2c1=O | 2.8
117 | CCOC(=O)c1cnc2nc(COc3ccccc3)[nH]n2c1=O | 0.3
118 | COC(=O)C1=C(C)NC(=O)NC1c1ccccc1 (stereo not drawn) | 1.0
119 | COc1ccc(OC)c(C2C3=C(CCCC3=O)NC3=C2C(=O)CCC3)c1 | 1.4
120 | O=C(Nc1ccccc1N1CCCCC1)c1ccco1 | i

Going on with the list.
entry | compound | H5N1 CPE
121 | Cc1cc(C)c2nc(-c3ccccn3)cc(C(=O)NCc3ccco3)c2c1 | i
122 | COc1ccc(C2CCCN2C(=O)Nc2ccccc2)cc1OC (stereo not drawn) | i
123 | O=c1c2ccccc2nc2n1CCN2 | i
124 | O=C(NCCN1CCCC1)c1ccc2c(=O)n(CCc3ccccc3)c(=O)[nH]c2c1 | i
125 | Cc1ccc(OCC(=O)N2CCCCCC2)c(C)c1 | 0.6
126 | FC(F)(F)c1cnc(Nc2ccc(N3CCOCC3)cc2)c(Cl)c1 | i
127 | Cn1c(C(=O)O)c(CC(=O)Nc2ccc(F)cc2F)c2ccccc21 | i
128 | Cc1cc(C)n2c(SCC(=O)Nc3ccccc3)nnc2n1 | i
129 | COc1cccc(S(=O)(=O)N2CCN(c3ccccc3F)CC2)c1 | 1.7
130 | CCNC(=O)C1CC(=O)N(Cc2ccc3c(c2)OCO3)C(=Nc2ccc(F)cc2)S1 (stereo not drawn) | i

Gathered by group: the compounds so far containing a tert-butyl group
entry | compound | H5N1 CPE
16 | CC(C)(C)Cc1nnc(NS(=O)(=O)Cc2ccccc2)s1 | i
17 | CC(=O)c1ccc(-n2nncc2C(C)(C)C)cc1 | 0.7
22 | CC(C)(C)N1CC(c2nc3ccccc3n2Cc2ccc(F)cc2)CC1=O (stereo not drawn) | i
27 | CC(C)(C)c1ccc(C(=O)Nc2cnccn2)cc1 | 0.5
109 | COc1cc(OC)cc(-c2cc3nc(C4CCN(C(=O)OC(C)(C)C)CC4)cc(=O)n3[nH]2)c1 | i

Some of the compounds tested. The share of hits here may be higher or lower than overall.
